# High-throughput results: PubChem BioAssay, National Center for Advancing Translational Sciences (NCATS)
# TRPML1 agonist – qHTS for Agonists of the Human Mucolipin Transient Receptor Potential 1 (TRPML1); Mucolipin-1 (Homo sapiens), Q9GZU1; TRPML1-expressing cells, Ca2+ dye fluorescence, FDSS; host cell line not named in the record; reference of the full effect not given here; activation, % (concentration not given with the values); actives 0.12% (n = 410,000); in the data active = activation above about 50%; inconclusive = about 30% to 50%; inactive = below about 30%; further: 0% is about no effect; the text of the record puts the active cut at 80%
# Target sequence (Q9GZU1 whole entry, looked up): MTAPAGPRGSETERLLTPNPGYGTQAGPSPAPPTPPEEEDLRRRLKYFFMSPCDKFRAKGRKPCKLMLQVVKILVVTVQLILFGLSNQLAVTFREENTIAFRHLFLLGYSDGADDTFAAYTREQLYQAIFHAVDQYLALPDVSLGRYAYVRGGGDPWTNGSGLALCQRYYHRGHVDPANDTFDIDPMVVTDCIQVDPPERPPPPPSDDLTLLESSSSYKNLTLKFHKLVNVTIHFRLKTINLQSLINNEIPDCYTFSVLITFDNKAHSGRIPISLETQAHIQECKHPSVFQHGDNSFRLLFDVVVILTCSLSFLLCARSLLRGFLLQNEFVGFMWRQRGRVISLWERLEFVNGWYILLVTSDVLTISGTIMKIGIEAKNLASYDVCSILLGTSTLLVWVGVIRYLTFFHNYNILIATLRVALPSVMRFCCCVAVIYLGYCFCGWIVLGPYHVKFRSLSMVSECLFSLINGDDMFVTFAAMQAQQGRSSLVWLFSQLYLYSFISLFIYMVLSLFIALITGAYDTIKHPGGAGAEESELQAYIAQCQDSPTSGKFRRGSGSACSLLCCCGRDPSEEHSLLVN
#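 Kinetic FDSS Ca2+ read in Tet-induced TRPML1-DL cells (ABD Ca8 dye plus quencher, 45-90 min RT loading): baseline, then compound, then 110 s agonist window; EC80 agonist 54-4 at 4uM final added afterwards for a 110 s antagonist window.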
# CtBP-E1A inh – qHTS Assay for Inhibitors of the CtBP/E1A Interaction | AlphaScreen GST-E1A/His-CtBP binding, 1536-well; hits give low values; control for the full effect not named in the record | CtBP / adenovirus E1A interaction (AlphaScreen) | activity change, % (test concentration not listed) | actives 0.49% (n = 340,000); in the data active means activity change below about -65%; inconclusive means about -30% to -65%; inactive means above about -30%; further: on the % scale 0 is the no-effect control and ±100 the full control effect; compound concentration not given in the record
#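 In 5 uL wells, 23 nL compound meets equimolar GST-E1A and His-CtBP (5X stock 125 nM each) for 2 h, 37 °C. Beads (5X, 50 ug/mL) then 1 h, 37 °C, dark.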
# Six1-Eya2 blk – qHTS Assay for Inhibitors of the Six1/Eya2 Interaction; activity change, % (no concentration beside the values); actives 0.56% (n = 360,000); AID 651725, 2012; AlphaScreen GST-Six1/His-Eya2 binding, biochemical; hits give low values; control for the full effect not named in the record; Homeobox protein SIX1 (Homo sapiens) + Protein phosphatase EYA2 (Homo sapiens), …; in the data active = activity change below about -65%; inconclusive = about -30% to -65%; inactive = above about -30%; further: on the % scale 0 is the no-effect control and ±100 the full control effect; compound concentration not given in the record
#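 Homogeneous AlphaScreen proximity assay pairing GST-Six1 with His-tagged Eya2 (added as 5X mix: 250 nM and 500 nM) in 50 mM Tris pH 8.0, 300 mM NaCl, 1 mM TCEP. Glutathione donor and nickel acceptor beads; 1 h, 37 °C, dark.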
# D2 agonist – Beta-Arrestin HTS for Positive Allosteric Modulators of the Human D2 Dopamine Receptor: Agonists; DiscoveRx PathHunter D2 beta-arrestin, luminescence, 90 min; 100% = 57 uM dopamine signal; actives 0.084% (n = 360,000); activation, % (no concentration beside the values); in the data active = activation above about 40%; inconclusive = about 15% to 40%; inactive = below about 15%; further: compound concentration not given in the record; the text of the record calls up to 30% inactive
# Target sequence (P14416 whole entry, looked up): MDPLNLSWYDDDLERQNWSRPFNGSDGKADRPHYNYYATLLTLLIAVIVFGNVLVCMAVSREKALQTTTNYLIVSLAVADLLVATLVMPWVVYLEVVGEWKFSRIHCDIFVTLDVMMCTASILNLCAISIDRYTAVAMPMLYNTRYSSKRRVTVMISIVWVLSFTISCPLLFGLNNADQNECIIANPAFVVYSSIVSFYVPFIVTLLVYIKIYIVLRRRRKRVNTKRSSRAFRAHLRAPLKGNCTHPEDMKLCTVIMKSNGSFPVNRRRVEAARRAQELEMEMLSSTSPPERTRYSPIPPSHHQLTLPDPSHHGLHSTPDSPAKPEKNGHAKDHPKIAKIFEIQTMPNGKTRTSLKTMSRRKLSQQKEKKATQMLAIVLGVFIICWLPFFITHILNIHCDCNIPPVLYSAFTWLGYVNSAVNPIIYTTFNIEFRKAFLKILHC
#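 DiscoveRx PathHunter D2 beta-arrestin cells (2,100/well) attached overnight, then compound-stimulated 90 min at 37 C in HBSS/10 mM HEPES/0.1% Tween-20 buffer; beta-galactosidase complementation read by luminescence after 1 h at ambient temperature. Dopamine 57 uM final (EC100) as control.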
# PINK1 modulator – A Quantitative High throughput Screen to Identify Chemical Modulators of PINK1 Expression. actives 0.2% (n = 410,000). PINK1 immunofluorescence, high-content cytometry, 24 h. Potency, µM (doses to about 76.6 µM), without a hit: at the highest dose activation (PINK1 increase), most hits filed as activators; active = well fitted activation curve with a large enough effect; inconclusive = small, poorly fitted or top-dose-only effect; inactive = flat fitted curve, though single readings scatter; cell line not stated here;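 further: potency means the concentration at half of the fitted maximal effect; % of control where 0% means no effect; nearly all actives have a fitted effect of over 65% in size; a mitochondrial uncoupler was the plate control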
#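 Readout is PINK1 immunofluorescence, quantified alongside mitochondrial, cell and nuclear markers by laser-scanning microplate cytometry. Cells from a stable line were exposed to compound titrations (5 concentrations) for 24 hours, with CCCP controls.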
# D2 PAM – Beta-Arrestin HTS for Positive Allosteric Modulators of the Human D2 Dopamine Receptor: Potentiators | D(2) dopamine receptor (Homo sapiens), P14416 | DiscoveRx D2 beta-arrestin cells, luminescence, 90 min; 100% = 57 uM dopamine signal | potentiation, % (test concentration not listed) | actives 0.23% (n = 360,000); active = potentiation of 50% or more; inconclusive = 30% to 50%; inactive = 30% or less;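 further: compound concentration not given in the record; tested on top of an EC20 dose of dopamine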
#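 PathHunter beta-arrestin assay in DiscoveRx D2 cells. Compounds were added with an EC20 of dopamine (50 nM final) for 90 min at 37 deg C. Luminescence was read 1 h after detection reagent, with 57 uM dopamine as the EC100 control.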
# Starred values were filed as active, the others as inactive; ? = inconclusive; / = not tested or not shown; & = joins results of further samples; [ ] = remark or other dose.
SMILES,TRPML1 agonist,CtBP-E1A inh,Six1-Eya2 blk,D2 agonist,PINK1 modulator,D2 PAM
COc1ccc(-c2noc(-c3ccc(Br)o3)n2)cc1OC,-0.7,10,0,1.1,6.8%[38.3 µM],-6
COc1ccc(-n2c(C)nn(CC3CC3)c2=O)cc1,1.4,9,12,-2.1,-0.4%,-4
O=C(Cc1c(F)cccc1Cl)Nc1ccccc1N1CCCCC1,3.9,0,19,-1.0,-0.9%,0
COc1cc(-c2nc3c(c(C)nn3-c3ccccc3)c3cc(OC)c(OC)cc23)ccc1O,15,?,-3,3.1,4.2%,13
COc1ccc(C2C(C#N)=C(C)NC3=C2C(=O)CC(C)(C)C3)c(OC)c1 (configuration not stated),-0.7,0,-1,-0.2,2.1%,23
COc1cc(NS(=O)(=O)c2cc(C(=O)NCCc3ccccn3)ccc2OC)cc(OC)c1,-0.7,1,4,0.9,3.3%,-1
O=C(Nc1cccc(Cl)c1)c1ccc2c(c1)OCCO2,0.4,-6,6,1.0,5.8%,-5
O=C(Cc1cccc(NC(=O)C2CCN(C(=O)c3ccccc3)CC2)c1)Nc1cccc(C(=O)N2CCCC2)c1,1.5,1,4,4.3,0.2%,3
Cc1ccc(OCc2cc(C(=O)N3CCCC(C)C3)no2)cn1 (configuration not stated),-0.7,-2,-6,-1.7,-0.8%,-15
C1CCC(c2nn3c(-c4n[nH]c5c4CCC5)nnc3s2)CC1,0.9,-3,-3,1.7,-0.2%,-3
CCCOc1c(Br)cc(/C=N/O)cc1OC,2.8,8,-10,-3.3,3.9%,5
CCS(=O)(=O)N1CCN(C(=O)c2ccccc2[N+](=O)[O-])CC1,-0.9,/,13,0.1,0.0%,0
O=C(CCNC(=O)c1ccc([N+](=O)[O-])cc1)Nc1ccccc1N1CCCC1,0.1,-2,-1,4.9,1.3%,-2
C=CC[C@@H](CC(=O)N[C@H](CO)Cc1ccccc1)C(=O)NC[C@@H](OC(=O)[C@@H](CC=C)Cc1ccc(F)cc1)c1ccccc1,-0.2,-1,5,-1.7,-0.2%,2
C#Cc1ccc([C@H]2C=C(C(=O)NCc3ccccc3)O[C@@H](OCC)[C@@H]2CCCO)cc1,2.3,5,29,1.9,-0.3%,24
COC(C[C@@H]1O[C@@H]1[C@@H](O)[C@H](C)OCc1ccccc1)OC,-0.7,3,3,-1.6,1.2%,-5
CCc1ccc(-c2cc(C)no2)cc1S(=O)(=O)NC(C)Cc1ccco1 (configuration not stated),-0.5,-6,-9,2.0,3.6%,0
O=C(c1ccccc1)c1ccc(OCC(O)CN2CCCCC2)cc1 (configuration not stated),0.1,3,-1,-3.2,0.4%,-4
C/C(CC(=O)NC1CCCCC1)=N\NC(=O)c1ccccn1,-0.2,-17,-19,-3.3,1.6%,-2
Cc1ccc(S(=O)(=O)Nc2cccc(Cl)c2)cc1NC(=O)C1CC1,0.8,0,9,-3.4,1.2%,-17
c1ccc(CCN2CCN(c3ncnc4c3cnn4-c3ccccc3)CC2)cc1,0.3,-13,-21,-2.9,-0.8%,-17
Cc1ccnc(N2CCCC(C(=O)Nc3cccc(C)c3C)C2)n1 (configuration not stated),-0.5,3,-1,-4.6,0.7%,4
CCc1ccc(NC(=O)N(CCN2CCOCC2)C2CCN(C(C)=O)CC2)cc1,0.7,6,15,-3.7,0.0%,4
Cc1ccc2cc(CNC(C)(C)C)c(=O)[nH]c2c1,0.0,6,-10,-4.2,-1.0%,-27
Cc1cc(C=O)c(C)n1-c1ccc(NC2CCCCC2)c([N+](=O)[O-])c1,0.9,?,?,-1.9,3.4%,-10
O=C(O)CC1=C(Nc2ccccc2)C(=O)N(c2ccccc2)C1c1ccc(Br)cc1 (configuration not stated),-0.2,-19,0,1.1,-0.5%,7
O=C(CSCc1c(Cl)cccc1Cl)N1CCOCC1,-0.2,10,10,1.0,-0.7%,0
Cc1ccc(-c2ccnc3nc(Sc4ncc(C(F)(F)F)cc4Cl)nn23)cc1,0.9,7,-2,-3.0,4.6%[38.3 µM],-8
CCOC(=O)c1ccc(NS(=O)(=O)c2c(C)[nH]c(C)c2C(=O)N2CCCCC2)cc1,-0.8,25,16,-1.8,0.3%,7
CC/C(=N\NC(=O)c1ccccc1Cl)c1ccc(Br)s1,0.6,5,0,0.6,13%,-12

# Some entries already given, showing only PINK1 modulator and TRPML1 agonist.
canonical_smiles | PINK1 modulator | TRPML1 agonist
C1CCC(c2nn3c(-c4n[nH]c5c4CCC5)nnc3s2)CC1 | -0.2% | 0.9
C#Cc1ccc([C@H]2C=C(C(=O)NCc3ccccc3)O[C@@H](OCC)[C@@H]2CCCO)cc1 | -0.3% | 2.3

# (more compounds)
SMILES,TRPML1 agonist,CtBP-E1A inh,Six1-Eya2 blk,D2 agonist,PINK1 modulator,D2 PAM
CCN1CCN(Cc2ccc(NC(=O)c3ccc(C)c(NC(=O)N4CCNC4=O)c3)cc2C(F)(F)F)CC1,-0.3&0.1&0.3,0&0&-8,-3&-9&-8,-2.4&0.7&0.4,-2.8%&-1.1%&-0.7%,-7&-17&-15
CCCOP(=O)(c1ccc(N(C)C)cc1)C(Nc1ccccc1)c1ccc(N(C)C)cc1 (configuration not stated),0.8,-22,-26,-1.4,?,-2
COc1cc(C2SCC(=O)N2Cc2ccccc2)ccc1O (configuration not stated),0.9,/,1,-2.6,-0.4%,-6
COc1ccc2ccccc2c1/C=N/NC(=O)c1cccc(C)c1,-0.5,/,2,-6.7,5.0%,-30
O=C(/C=C/c1ccco1)Nc1cccc2cccnc12,7.2,-15,?,3.0,2.5%,2
C/C(Cl)=C\CSc1nnc2n(N)c(=O)c3ccccc3n12,0.6,-2,-8,-1.3,-0.3%,1
C/C(CC1CC(COCC(C)C)OC1=O)=N\Nc1nc(-c2ccccc2)cs1 (configuration not stated),-0.4,-3,-5,2.2,-1.9%[38.3 µM],10
CN(Cc1ccccc1)C(=O)c1cccc(NC(=O)Cc2ccc(NC(=O)C3CCCN(C(=O)C4CCCCC4)C3)cc2)c1 (configuration not stated),-0.8,-7,3,0.6,3.7%,2
COc1ccc(NC(=O)CSc2nnc(C)s2)cc1S(=O)(=O)N1CCOCC1,0.1,-10,-7,1.4,-0.2%,-3
Cc1ccc2oc(C(=O)NCc3ccc(S(N)(=O)=O)cc3)cc(=O)c2c1,1.4,-2,3,-0.4,-2.4%,-5
COc1cc(S(=O)(=O)Nc2cccnc2)ccc1F,0.0,-2,18,1.5,-0.5%,1
Cc1nn(-c2ccccc2)nc1C(N)=O,-0.8,-1,-17,0.1,-1.7%,-2
O=C(Nc1ccccc1)c1cc(C2COCCN2C(=O)C2CC2)on1 (configuration not stated),-0.1,4,9,-5.9,0.3%,-5
CC(C)C(OC(=O)CN1C(=O)c2ccccc2C1=O)C(=O)NC1CCCCC1 (configuration not stated),-1.7,-4,4,-2.9,5.7%,-1
CCOC(=O)c1c(NC(=O)CSc2nnc(-c3ccccc3)o2)sc(C(C)=O)c1C,0.2,0,-2,-2.4,1.8%,0
NC(=O)c1cc(-c2ccccc2)sc1NC(=O)Cc1ccc(S(=O)(=O)N2CCOCC2)s1,-0.5,-6,-6,-0.2,5.0%,5
Cc1cc(C(=O)NCc2ccco2)sc1C,2.9,3,-5,3.9,1.2%,2
CSc1nc(-c2ccc(Cl)cc2)c(C#N)c(=O)[nH]1,0.1,1,1,-1.0,1.5%,-1
CCOC(=O)c1c(C)[nH]c(C)c1C(=O)CSc1nnc(-c2ccncc2)n1Cc1ccccc1,4.6,-8,-3,-4.9,0.2%,3
COc1ccc(Br)c(C(=O)OCC(=O)NC(=O)NC2CCCC2)c1,0.6,/,-5,5.9,6.5%,?
O=C(NCCCn1ccnc1)c1nn2c(C(F)(F)F)cc(-c3ccc(Br)cc3)nc2c1Cl,1.5,?,-18,0.1,-1.7%,-17
Cc1nc(C(N)=O)nc2ccccc12,-0.2,-4,1,-2.7,2.4%,-2
Cc1ccc(C(=O)N2CCN(C/C=C/c3ccccc3)CC2)cc1S(=O)(=O)N1CCOCC1,0.1,0,1,14,-2.1%,-6
O=C(N/N=C/c1c(O)ccc2ccccc12)c1[nH]ncc1Br,3.2,-90*,-85*,-0.3,4.7%,-9
CCCCNC(=O)c1nc(C2CCN(S(=O)(=O)c3ccc(F)c(F)c3)CC2)oc1-c1ccccc1,0.3,-8,16,-5.2,5.9%,-4
O=C(OCc1cn([C@H]2CN(CC3CCCCC3)[C@@H](c3ccc(Cl)cc3)C[C@@H]2O)nn1)c1ccccc1,/,3,6,0.5,-1.4%,/
COc1ccc(C)cc1Nc1n[n+](-c2ccccc2)c(-c2ccc(C(=O)O)cc2)s1,0.1,-7,1,-1.3,0.1%,-23
O=[N+]([O-])c1cc2c(cc1CN1CCN(CCOCCO)CC1)OCO2,/,/,7,-0.1,0.0%,-39
Fc1ccc(N2CCN(c3nc(-c4ccco4)cc(C(F)(F)F)n3)CC2)cc1,-0.3,13,4,-2.2,3.2%,-15
CONC(=O)c1cc(OCC(F)(F)F)ccc1OCC(F)(F)F,1.2,-6,9,-1.0,0.8%,-12
CC(=O)c1ccc(NC(=O)CN2c3cccc4cccc(c34)S2(=O)=O)cc1,-1.0,-11,-12,2.4,3.3%,-3
CC(=O)Nc1ccc(OCC(O)CNC(C)C)cc1 (configuration not stated),-0.1,1,-2,-1.0,0.6%,5
CCN(C[C@H]1N[C@@](CC)(C(=O)OC)[C@H]2C(=O)N(C)C(=O)[C@@H]12)C(=O)c1ccc(F)cc1,0.9,1,7,0.3,0.1%,-5
COc1ccc(OC)c(/C=C/c2[nH]c(=O)[nH]c(=O)c2[N+](=O)[O-])c1,2.0,-13,-23,1.8,-1.4%,-8
O=S(=O)(c1ccc2c(c1)CCCN2)N1CCCCC1,-0.8,/,-2,8.5,3.1%,-5
CCOC(=O)C(=CNc1ccc(OC)cc1[N+](=O)[O-])C(=O)OCC,3.7,/,2,9.1,2.6%,8
CCc1ccc(NC(=O)C2CCN(S(=O)(=O)c3ccc4c(c3)NC(=O)C(C)S4)CC2)cc1 (configuration not stated),-0.6,-4,-1,-0.1,-0.2%,-9
CN1CCCN(C(=O)c2c(F)cccc2Cl)CC1,0.5,-2,2,-5.3,1.4%,-4
CCOC(=O)c1nn(-c2ccccc2)c(=O)c(C#N)c1C,0.2,1,-1,5.3,-0.7%,?
